Screening results from PubChem.
WNV NS2B-NS3 inh = inhibitors of WNV NS2B-NS3 protease, primary screen, biochemical, fluorogenic substrate; Genome polyprotein (West Nile virus), P06935; fluorogenic substrate Ex360/Em465; hits give low values; z-score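 (tested at a level between 10 and 100 µM)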; hit rate 0.18% among 65,000; AID 577, 2007;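 active = z-score at -3 or under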;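 note: score is relative to mean and spread of the compound wells of a plate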
Target sequence (P06935 1371-1501 limits assumed): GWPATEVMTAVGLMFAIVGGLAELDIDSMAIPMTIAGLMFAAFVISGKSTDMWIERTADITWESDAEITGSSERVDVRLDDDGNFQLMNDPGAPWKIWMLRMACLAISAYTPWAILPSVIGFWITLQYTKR
Target sequence (P06935 1502-1679 limits assumed): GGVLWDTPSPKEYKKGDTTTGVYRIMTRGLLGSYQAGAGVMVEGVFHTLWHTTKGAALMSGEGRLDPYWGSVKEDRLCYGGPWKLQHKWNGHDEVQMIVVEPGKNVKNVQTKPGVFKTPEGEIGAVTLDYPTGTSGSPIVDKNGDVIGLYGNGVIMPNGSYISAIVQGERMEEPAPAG
The depositor's hits bear a star; & = joins results of further samples. Only part of the results is shown. The share of hits here may be higher or lower than overall.

The first five compounds, to show the layout:
SMILES	WNV NS2B-NS3 inh
Cc1ccc2c(c1)N(C(=O)CCC(=O)N1CCc3ccccc3C1)CCO2	0.75
Cn1c2ccccc2c2c(C(=O)N3CCN(c4ccc(F)cc4)CC3)cn(C3CCCC3)c(=O)c21	-1.05
O=C(NCC(c1cccnc1)N1CCN(c2ccccc2F)CC1)C1CCCCC1 (configuration not stated)	1.69
C=CCNc1nc(-c2sc(NC(C)=O)nc2C)cs1	0.12
CCCCC(=O)Nc1cc(C)c2c(=O)oc3ccccc3c2n1	2.21

The list itself, from the start:
SMILES	WNV NS2B-NS3 inh
Cc1ccc2c(c1)N(C(=O)CCC(=O)N1CCc3ccccc3C1)CCO2	0.75
Cn1c2ccccc2c2c(C(=O)N3CCN(c4ccc(F)cc4)CC3)cn(C3CCCC3)c(=O)c21	-1.05
O=C(NCC(c1cccnc1)N1CCN(c2ccccc2F)CC1)C1CCCCC1 (configuration not stated)	1.69
C=CCNc1nc(-c2sc(NC(C)=O)nc2C)cs1	0.12
CCCCC(=O)Nc1cc(C)c2c(=O)oc3ccccc3c2n1	2.21
Cc1ccc(-c2nc3ncccn3c2Nc2ccc3c(c2)OCO3)o1	0.5
c1ccc(-c2ccc(-c3nc(-c4ccccn4)no3)cc2)cc1	0.09
COc1ccc2c3c(cccc13)NN=C2C	-4.53*
O=C(Nc1nncs1)C1c2ccccc2Oc2ccccc21	-0.4
O=C(Cc1ccccc1)NCCc1cn2ccsc2n1	1.21
CC(C(=O)O)c1ccc(-c2ccccc2)c(F)c1 (configuration not stated)	0.1&0.7
COc1cccc(CNC(=O)CCS(=O)(=O)c2cccc3nsnc23)c1	-0.18
COc1ccc(-c2cc3ccccc3n2CC(O)CN2CCN(CCO)CC2)cc1 (configuration not stated)	-1.02
Cn1c2ccccc2c2c(C(=O)N3CCN(c4ccccn4)CC3)cn(C3CCCC3)c(=O)c21	-1.79
CCOC(=O)c1ccc(NC(=O)CSc2nnc(CNC(=O)c3ccccc3F)o2)cc1	0.8
CCC(C)(C(=O)NC1CCCC1)N(Cc1cccs1)C(=O)Cc1cccs1 (configuration not stated)	-0.23
COc1ccc(N2CCN(C(=O)c3cn(C4CCCC4)c(=O)c4c3c3ccccc3n4C)CC2)cc1	0.13
O=C(Nc1ccc(Cl)cc1)c1ccncc1	-0.51
O=C(c1ccccc1)N1CCN(C(=O)N2CCOCC2)CC1	-0.77
COc1ccccc1NC(=O)CCC(=O)O	-0.02
COc1ccc(CCNC(=O)C2CCN(S(=O)(=O)c3c(C)noc3C)CC2)cc1OC	-0.33
CCn1c(SCC(=O)Nc2nc(-c3ccccc3)cs2)nnc1-c1ccccc1O	1.64
Cc1cc(C)c(C#N)c(SCC(=O)N2CCN(Cc3ccccc3)CC2)n1	-0.34
COc1ccccc1-n1c(SCC(=O)Nc2ccc3c(c2)OCO3)nc2c(c1=O)SCC2	-0.15
CN1C(=O)c2cccc(NC(=O)CCc3ccccc3)c2C1=O	0.76

Part of the list above in another layout.
> CCC(C)(C(=O)NC1CCCC1)N(Cc1cccs1)C(=O)Cc1cccs1 (configuration not stated)
  WNV NS2B-NS3 inh = -0.23
> COc1ccc(N2CCN(C(=O)c3cn(C4CCCC4)c(=O)c4c3c3ccccc3n4C)CC2)cc1
  WNV NS2B-NS3 inh = 0.13
> O=C(Nc1ccc(Cl)cc1)c1ccncc1
  WNV NS2B-NS3 inh = -0.51

Going on with the list:
SMILES	WNV NS2B-NS3 inh
O=C(CSc1ncn[nH]1)Nc1ccc(Cl)c(Cl)c1	0.00474
Cc1cc(F)ccc1S(=O)(=O)Nc1ccccc1C(=O)Nc1ccc2[nH]c(=O)[nH]c2c1	-0.72
CCOC(=O)N1CCC(NC(=O)c2cc3c(=O)n(C)c4ccccc4c3n2C)CC1	0.58
COc1ccc2occ(C(=O)c3ccc(N=C(C)N(C)C)cc3)c2c1	-0.76
O=C(O)CCC(=O)NCC1OCCc2ccccc21 (configuration not stated)	2.15
O=C(Cn1cnc2c(cnn2-c2ccc(F)cc2)c1=O)NCc1ccco1	-0.03
Cc1noc(NS(=O)(=O)c2ccc(N)cc2)c1C	0.37&0.87
CC(=O)c1cccc(NC(=O)CN(c2cccc(F)c2)S(C)(=O)=O)c1	2.57
COc1ccccc1OCC(=O)Nc1ccc(O)cc1C(=O)O	-0.18
CS(=O)(=O)c1nc(-c2cccs2)cc(C(F)(F)F)n1	1.56
COc1cccc(OC)c1OCC(C)CNCC1CCCO1 (configuration not stated)	0.53
Cc1ccc(NC(=O)c2nc[nH]c2C(=O)N2CCCCC2)c(C(=O)c2ccccc2)c1	-1.09
C=CCN1C(=O)C(CC(=O)O)SC1=Nc1c(C)n(C)n(-c2ccccc2)c1=O (configuration not stated)	0.25
O=C(CC1CCCC1)NCCc1cn2ccccc2n1	1.55
Cc1csc(NC(=O)C2CCCN(S(=O)(=O)c3ccc(Br)s3)C2)n1 (configuration not stated)	0.5
c1ccc(-n2c(Cc3cccnc3)nc3cnccc32)cc1	0.41
CN1C(=O)CSc2ccc(NC(=O)NCc3ccco3)cc21	0.67
COc1ccccc1C1NC(=O)NC(C)=C1C(=O)Nc1cccc(C)c1C (configuration not stated)	-0.66
Cc1c(NC(=O)OCc2ccccc2)c(=O)n(-c2ccccc2)n1C	0.56
Cc1c(C(=O)Nc2ccccc2)sc2nc(-c3ccccc3)cn12	-2.34
CC1(C)CC(=O)c2cc(C(=O)Nn3cnnc3)c(=O)n(-c3ccccc3)c2C1	-0.88
COCCCNC(=O)c1ccc(N2CCCC2)c(NS(=O)(=O)c2ccc(C)cc2)c1	0.89
Cc1cc(C)nc(NC2=NCCN2C(=O)Nc2ccc(Cl)c(Cl)c2)n1	0.14
COC(=O)c1cn(NC(=O)c2cccnc2)c(=O)c2ccccc12	-0.68
COc1cc(C2C(C#N)=C(N)Oc3cc(N)ccc32)cc(OC)c1OC (configuration not stated)	0.29
COC(=O)c1cc(OC)c(OC)cc1NC(=O)Cn1nnc(-c2ccccc2Cl)n1	0.36
Cc1ccc(CNC(=O)c2cn(C3CCCC3)c(=O)c3c2c2ccccc2n3C)o1	-1.33
O=C(O)/C=C1\NC(=O)c2ccccc21	0.37
COc1cccc(C(=O)Nc2cc(C)c3c(=O)oc4ccccc4c3n2)c1	0.18
COc1ccc(C2C(C(=O)N3CCCC3)c3cc(OC)c(OC)cc3C(=O)N2C)cc1 (configuration not stated)	-0.39
CCCN1CCN(C(=O)c2cn(CC(C)C)c(=O)c3cc(OC)c(OC)cc23)CC1	0.25
Cc1nc2ccc3nc(NC(=O)c4ccc(S(=O)(=O)N5CCOCC5)cc4)sc3c2s1	0.05
COc1cccc(N2CCN(Cc3nc4ccccc4c(=O)[nH]3)CC2)c1	0.47
O=C1CCc2cc(S(=O)(=O)N3CCC(C(=O)NCc4ccccn4)CC3)ccc2N1	0.57
C=CCOC(=O)c1[nH]c2c(c1C)C(=O)CC(c1cc(OC)c(OC)c(OC)c1)C2 (configuration not stated)	-0.91
CC(=O)c1cccc(NS(=O)(=O)c2c(C)n[nH]c2C)c1	-0.87
CCCCNC(=O)Oc1cccc(N2CCCC2=O)c1	1.69
CCOc1ccccc1NC(=O)C1CCCN(S(=O)(=O)c2c(C)[nH]c(=O)[nH]c2=O)C1 (configuration not stated)	0.69
Cc1ccccc1OCCCCc1c(C)n[nH]c1C	-0.9
Cc1cc(C)cc(OCC(=O)NCC2CCCO2)c1 (configuration not stated)	0.08
Cc1cccc(NC2(C(F)(F)F)N=C3SCCN3C2=O)n1 (configuration not stated)	1.28
COc1cccc2cc(NC(=O)C3CCCCC3)c(=O)oc12	0.29
O=C1OC(N2CCN(C/C=C/c3ccccc3)CC2)c2ccccc21 (configuration not stated)	-0.06
CC12CC(NC(=O)N1c1cccc(C(=O)N3CCN(c4ccccn4)CC3)c1)c1ccccc1O2 (configuration not stated)	1.98
Cc1noc(C)c1S(=O)(=O)N1CCC(C(=O)NCCC2=CCCCC2)CC1	-0.58
CC(C)n1c(=S)[nH]c2c1c(=O)[nH]c(=O)n2C	0.04
C=CCSc1[nH]c(=O)cc(C)c1C(N)=O	-1.64
COc1cc(C(C)=O)ccc1OC(=O)C(C)N1C(=O)c2ccccc2C1=O (configuration not stated)	1.32
COC(=O)N1CCN(S(=O)(=O)c2ccc(F)cc2)CC1	-0.49
Fc1ccc(-c2cnc[nH]2)cc1	-0.8

Brought forward from above: four compounds, followed by the next part.
Molecule	WNV NS2B-NS3 inh
C=CCSc1[nH]c(=O)cc(C)c1C(N)=O	-1.64
COc1cc(C(C)=O)ccc1OC(=O)C(C)N1C(=O)c2ccccc2C1=O (configuration not stated)	1.32
COC(=O)N1CCN(S(=O)(=O)c2ccc(F)cc2)CC1	-0.49
Fc1ccc(-c2cnc[nH]2)cc1	-0.8
Cc1cccc(-n2c(CNC(=O)c3ccc(S(=O)(=O)N4CCCC4)cc3)n[nH]c2=S)c1	1.21
CCOC(=O)CN1CC23C=CC(O2)C(C(=O)Nc2ccc(F)cc2)C3C1=O (configuration not stated)	1.25
O=C(Nc1ccc(F)cc1)N(CCCN1CCOCC1)Cc1cc2cc3c(cc2[nH]c1=O)OCO3	-0.51
COc1ccc(C2C3=C(OC(C)=O)c4ccccc4C3=Nc3c2c(=O)n(C)c(=O)n3C)cc1 (configuration not stated)	-0.09
Cc1cc(N/C=C2\CCCCC2=O)no1	-1
CS(=O)(=O)N(CC(=O)N1CCN(c2ccccc2)CC1)c1cc(C(F)(F)F)ccc1Cl	-0.93
COc1cccc(N(CC(=O)Nc2ccccc2C)S(C)(=O)=O)c1	-0.55
O=C(CCN1C(=O)COc2ccccc21)NCCN1CCOCC1	0.37
COc1ccc(NC(=O)NCCCN2CCN(c3cc(C)ccc3C)CC2)cc1	-0.44
CC(=O)O[C@H]1C(=O)[C@]2(C)[C@H]([C@H](OC(=O)c3ccccc3)[C@]3(O)C[C@H](OC(=O)[C@H](O)[C@@H](NC(=O)c4ccccc4)c4ccccc4)C(C)=C1C3(C)C)[C@]1(OC(C)=O)CO[C@@H]1C[C@@H]2O	0.26
COc1cccc(CNC(=O)C2CCN(Cc3cnn(-c4ccccc4)c3-n3cccc3)CC2)c1	0.81
CCOC(=O)c1ccc(Oc2nc(NC(C)(C)C)nc(N(C)C)n2)cc1	0.14

A few values from the list.
Reading of `C=CCOC(=O)c1[nH]c2c(c1C)C(=O)CC(c1cc(OC)c(OC)c(OC)c1)C2` (configuration not stated) under WNV NS2B-NS3 inh: -0.91
Reading of `COc1ccc(NC(=O)NCCCN2CCN(c3cc(C)ccc3C)CC2)cc1` under WNV NS2B-NS3 inh: -0.44
Reading of `O=C(Nc1ccc(F)cc1)N(CCCN1CCOCC1)Cc1cc2cc3c(cc2[nH]c1=O)OCO3` under WNV NS2B-NS3 inh: -0.51
Reading of `COc1ccccc1-n1c(SCC(=O)Nc2ccc3c(c2)OCO3)nc2c(c1=O)SCC2` under WNV NS2B-NS3 inh: -0.15

Later entries:
Molecule	WNV NS2B-NS3 inh
CCCCOc1ccc(C(=O)Oc2ccc(C)nc2)cc1	-1.11
COc1cc(C(=O)OCCN2CCOCC2)cc(OC)c1OC	-0.73
Cc1ccccc1C1CC(c2ccccc2)Nc2ncnn21 (configuration not stated)	0.71
O=c1cccccc1NCc1ccccc1	0.39
O=C(CSCc1ccccc1Cl)N1CCN(c2ccccn2)CC1	0.26
CCOC(=O)C(C)Oc1cccc2c(=O)n(CC(=O)Nc3ccc4c(c3)OCCO4)ccc12 (configuration not stated)	0.29
CC1(C)OC(=O)C(=C2CCCN2)C(=O)O1	-0.75
COc1ccc(CNC(=O)Cc2nn(C)c(=O)c3ccccc23)cc1	0.73
O=C(O)c1cccc(NC(=O)c2cccc(NC(=O)C3CCCO3)c2)c1 (configuration not stated)	-0.25
Cn1c2c(c(=O)n(C)c1=O)C(c1ccc(O)cc1)Nc1ccccc1O2 (configuration not stated)	-0.66
